HSV replic up: increases HSV replication in cells | HSV replication augmentation in cells, fold increase | maximum fold increase | 220,000 compounds, 0.005% hits | AID 1956;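 active = peak rise of 1.5-fold or more in the series; inconclusive = self-fluorescent or not available for retest; tested in PC3 cells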;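 note: first round at 10 µM; read as green reporter fluorescence; hits show the peak of a series up to 25 µM; 1 = signal of infected wells without compound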
PKD1 kinase inh: inhibitors of human PKD1 kinase. Q15139. PKD1 kinase fluorescence polarization assay. inhibition, %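 (about 10 µM by stock and volumes)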. 200,000 compounds, 0.056% hits;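 active = inhibition of 50% or more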;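 note: controls were vehicle for no effect and a reference inhibitor for full effect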
RGS16-Gao HTS: modulates binding between human RGS16 and Galphao; binding response (% of control), % at 10 µM; O15492+P09471; 220,000 compounds, 0.38% hits; AID 1441; bead-based flow cytometry RGS16-Galphao binding, fluorescence; actives lie on both sides;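 active = below 25% or above 175%, edge rows of some plates excepted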;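 note: Galphao activated by GDP with aluminum fluoride before binding; 100% = wells without compound and 0% = beads without RGS; some results beyond the cut were filed as inactive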
Target sequence (O15492 whole entry, looked up): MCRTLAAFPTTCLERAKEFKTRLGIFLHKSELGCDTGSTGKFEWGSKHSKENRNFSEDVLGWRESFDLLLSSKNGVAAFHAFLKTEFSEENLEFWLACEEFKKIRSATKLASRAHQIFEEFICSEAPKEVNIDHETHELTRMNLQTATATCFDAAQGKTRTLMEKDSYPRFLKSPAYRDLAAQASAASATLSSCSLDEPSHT
Target sequence (P09471 whole entry, looked up): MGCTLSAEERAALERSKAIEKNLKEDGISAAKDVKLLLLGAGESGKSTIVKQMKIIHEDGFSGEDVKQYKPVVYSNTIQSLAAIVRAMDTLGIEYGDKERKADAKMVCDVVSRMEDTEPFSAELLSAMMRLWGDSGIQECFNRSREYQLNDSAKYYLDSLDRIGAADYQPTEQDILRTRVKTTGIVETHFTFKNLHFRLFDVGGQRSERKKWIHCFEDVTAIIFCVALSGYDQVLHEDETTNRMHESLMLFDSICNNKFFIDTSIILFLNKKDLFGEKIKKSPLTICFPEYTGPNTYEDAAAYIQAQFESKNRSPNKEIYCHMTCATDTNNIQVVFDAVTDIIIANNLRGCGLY
INS promoter inh: TRM-6 insulin promoter activity inhibition; inhibition, % at 2 µM; 130,000 compounds, 0.9% hits; TRM-6 cells (human fetal islet line), insulin promoter-eGFP reporter, imaging; reporter expression induced with tamoxifen; AID 1273;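 active = inhibition above the mean plus 3 SD, with well images judged a real hit on visual review, cut at about 60% in these data, passing the limit was not always enough; inconclusive = inhibition over the cutoff but images rejected on review; inactive = inhibition not above the cutoff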
GALR2 ag: agonists of human galanin receptor 2 (GALR2); O43603; GALR2-expressing cells, agonist activation read-out; activation, %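 (tested at 5 µM)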; 140,000 compounds, 0.48% hits;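 active = above mean plus 3 SD of all compounds, about 5% in these data, not always enough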;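 note: 0% = vehicle buffer wells and 100% = reference agonist at full effect; tested in CHO reporter cells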
Target sequence (O43603 whole entry, looked up): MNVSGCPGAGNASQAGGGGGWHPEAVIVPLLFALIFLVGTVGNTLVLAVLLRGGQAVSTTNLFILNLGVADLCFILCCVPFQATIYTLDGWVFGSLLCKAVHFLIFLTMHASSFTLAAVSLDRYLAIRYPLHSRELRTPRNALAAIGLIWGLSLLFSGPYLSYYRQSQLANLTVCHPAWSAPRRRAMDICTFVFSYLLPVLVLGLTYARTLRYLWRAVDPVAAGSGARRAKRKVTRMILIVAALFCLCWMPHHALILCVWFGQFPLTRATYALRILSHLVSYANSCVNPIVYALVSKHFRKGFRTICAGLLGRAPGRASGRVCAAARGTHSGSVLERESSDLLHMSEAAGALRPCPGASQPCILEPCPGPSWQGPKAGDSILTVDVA
INS promoter inh cell count: also measured in INS promoter inh; calls as there; normalized cell count, %; measured here: cell count, toxicity; reference of the scale not given here;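 cells exposed to compound for 48 h; stained nuclei by imaging scaled within each plate; lower means fewer cells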
HSV replic up primary fold: also measured in HSV replic up; calls as there; fold increase; compound at 10 µM; measured here: primary screen fold increase 10 uM; tested in PC3 cells;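 GFP signal in the first replicate; 1 = infected wells without compound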
Active calls of the source: *; i = inactive; ? = inconclusive; . = not tested or not shown.

SMILES	HSV replic up	HSV replic up primary fold	PKD1 kinase inh	RGS16-Gao HTS	INS promoter inh	INS promoter inh cell count	GALR2 ag
Cc1ccc(NC(=O)COC(=O)CCC(=O)c2ccc(Cl)cc2)cc1S(=O)(=O)N(C)C	i	0.91	7	130	.	.	0.6
O=C(OC(C(=O)NCc1ccco1)C(OC(=O)c1ccccc1)C(=O)NCc1ccco1)c1ccccc1 (stereo not given)	i	1	6	93	-41	91	-1.0
CCN(C(=O)c1cnc(OC)cc1C(F)(F)F)c1ccc(Cl)cc1	i	1.1	.	100	.	.	.
O=C(CCCCCNC(=O)c1ccccc1)C[N+](=O)[O-]	?	.	-10	105	-8	122	.
Nn1nnc2ccccc21	i	0.63	.	100	.	.	.
Cc1ccc(C)c(NC(=O)COC(=O)CCc2ccc(S(=O)(=O)N3CCOCC3)cc2)c1	i	0.98	3	110	-17	110	.
CCCCc1ccc(NC(=O)COc2ccc(C(=O)Nc3ccccc3OC)cc2)cc1	i	0.85	0	32	8	77	-1.0
O=S1(=O)N=C(Nc2ccc(N3CCOCC3)c(Cl)c2)c2ccccc21	i	0.91	5	102	0	78	.
COc1ccc(C(=O)NNC(=S)NC(=O)/C=C/c2cccs2)cc1	i	0.92	2	101	63	126	.
COC(=O)c1c(NC(=O)c2ccco2)sc(C(=O)N(C)C)c1C	i	0.85	-16	34	-105	41	-0.7
O=c1nc(N2CCOCC2)nc(N/N=C/c2ccc3c(c2)OCO3)[nH]1	i	0.99	-4	103	.	.	.
Nc1c(-c2ccccc2)cnn1-c1ccc(C(=O)O)cc1	i	1.1	-7	98	-31	125	-1.2
CCCCC(=O)Nc1ccccc1C(C)C	i	0.75	0	103	.	.	.
COc1ccc(-c2[nH]ncc2CN2CCC(OCc3ccccc3)CC2)c(F)c1	i	1	-1	101	.	.	.
COC(C[C@@H]1O[C@@H]1[C@H](O)COCc1ccccc1)OC	i	0.96	.	102	.	.	.
O=C1NC2(CCSC2)C(=O)N1CC(=O)N(Cc1ccccc1)C1CCS(=O)(=O)C1 (stereo not given)	i	1.1	.	107	.	.	.
O=C(COC(=O)COc1ccccc1[N+](=O)[O-])Nc1ccccc1Br	i	1.1	-11	98	19	127	-0.5
CN(C)S(=O)(=O)c1ccc(C(=O)Nc2nnc(-c3cccs3)o2)cc1	i	1.1	-5	105	19	78	.
O=C(CCN1CCc2ccccc2C(O)(c2ccccc2)C1)c1ccc2c(c1)OCCO2 (stereo not given)	i	0.7	-10	.	62	61	-2.4
CCN(CCO)c1ncnc2c1sc1nc(C(C)C)c3c(c12)CC(C)(C)OC3	i	0.89	9	111	27	84	0.3

Results in RGS16-Gao HTS and INS promoter inh cell count, for some of the entries so far:
Compound | RGS16-Gao HTS | INS promoter inh cell count
COc1ccc(-c2[nH]ncc2CN2CCC(OCc3ccccc3)CC2)c(F)c1 | 101 | .
Nn1nnc2ccccc21 | 100 | .
COC(C[C@@H]1O[C@@H]1[C@H](O)COCc1ccccc1)OC | 102 | .
O=c1nc(N2CCOCC2)nc(N/N=C/c2ccc3c(c2)OCO3)[nH]1 | 103 | .
O=C(COC(=O)COc1ccccc1[N+](=O)[O-])Nc1ccccc1Br | 98 | 127

(cont.)
SMILES	HSV replic up	HSV replic up primary fold	PKD1 kinase inh	RGS16-Gao HTS	INS promoter inh	INS promoter inh cell count	GALR2 ag
CCn1cc(C(=O)O)c(=O)c2cc(F)c(N3CCN(C(=S)NC(=O)c4ccccc4Cl)CC3)cc21	i	0.96	.	100	.	.	.
COc1ccccc1-n1cnc2cc(C(=O)NCc3ccco3)ccc21	i	0.95	-6	103	9	95	-1.4
O=C(NC1CCCCNC1=O)c1ccc(Cl)cc1 (stereo not given)	i	1	-1	102	9	104	-3.2
O=C(NC(=S)Nc1ccc(S(=O)(=O)Nc2nccs2)cc1)c1cccc(F)c1	i	1.2	-9	99	74*	94*	-0.2
COc1ccccc1CCNC(=O)CSc1nnc2ccc(-c3cccnc3)nn12	i	1.1	3	99	.	.	.
O=C(NNc1cccc([N+](=O)[O-])c1)/C(=C\c1cccnc1)NC(=O)c1ccccc1	i	0.82	.	91	.	.	.
COc1ccc(C(=O)N2CCCC(c3nc(-c4cccs4)no3)C2)cc1OC (stereo not given)	i	0.85	3	98	6	75	-0.9
CCC(=O)Nc1ccc(NC(=O)c2ccccc2)nc1	i	0.93	0	109	.	.	.
COc1ccccc1/C=C/C=N/n1c(-c2ccc(Cl)cc2Cl)n[nH]c1=S	i	0.81	.	93	.	.	.
CCOC(=O)C1=C(C)C2C3C(=O)N(c4cc(C)ccc4C)C(=O)C3C1(C)C1C(=O)N(c3cc(C)ccc3C)C(=O)C21 (stereo not given)	i	1.1	-7	100	.	.	-1.6
CCNc1nc(-c2ccc(OC(F)F)cc2)c(C)s1	i	0.89	0	105	.	.	.
Cc1ccc(C(=O)OCC(=O)Nc2sc3c(c2C#N)CCCCC3)cc1NC(=O)c1ccco1	i	0.94	-4	99	.	.	0.1
c1ccc(OCc2nnc3n2CCCCC3)cc1	i	0.99	.	99	.	.	.
Cc1ccc(NC(=O)c2ccc(N3CCOCC3)c([N+](=O)[O-])c2)cc1S(=O)(=O)N1CCOCC1	i	0.76	0	100	.	.	-0.4
CCOC(=O)N1CCN(C(=O)Cn2cnc3ccccc3c2=O)CC1	i	1	0	116	.	.	.
Cc1cc(NS(=O)(=O)c2ccccc2)n(-c2ccccc2)n1	i	0.86	-5	102	29	132	-1.7
COc1ccc(C2=NN(C(=O)CSc3cn(C)c4ccccc34)C(c3ccc(OC)cc3)C2)cc1 (stereo not given)	i	0.83	-9	104	.	.	-0.3
CCOc1c(OC(C)=O)ccc(/C=C/c2ccc3cccc(OC(C)=O)c3n2)c1[N+](=O)[O-]	.	.	5	106	-20	90	-2.5
Cn1c(C(=O)N(Cc2ccccc2)Cc2ccccn2)cc2sccc21	i	1.1	9	104	26	67	-2.0
CC(C)(C)c1ccc(C(=O)N/C(=C\c2cccs2)C(=O)NCc2ccco2)cc1	i	0.84	-5	103	-3	89	-1.7
COc1ccc(CN2CNc3nc4ccccc4n3C2)cc1	i	0.8	-1	114	0	116	-0.1
CCC(C)C(=O)Nc1nccs1 (stereo not given)	i	0.88	1	99	15	133	.
CS(=O)(=O)N1CCCC(C(=O)NCc2cccs2)C1 (stereo not given)	i	0.9	-8	100	.	.	-4.0
COc1ccc(Cl)cc1NC(=S)NCCC(c1ccccc1)c1ccccc1	.	.	-8	129	.	.	-1.4
CCOc1cc(/C=N/NC(=O)c2cccnc2)ccc1OCC(=O)N(C)C	.	.	-3	102	43	109	.
O=C(NC1CCN(Cc2ccccc2)CC1)c1ccc(N2CC3CC(C2)c2cccc(=O)n2C3)c([N+](=O)[O-])c1 (stereo not given)	i	0.88	-3	110	-8	80	.
CCOc1ccc(/C=C2\SC(=S)N(Nc3ccccc3)C2=O)cc1OC	i	1	-1	98	10	99	0.8
CCCC1=NN(C(=O)Cc2ccc(OC)cc2)C(O)(C(F)(F)F)C1 (stereo not given)	i	1.1	-6	99	.	.	-0.1
CN1CCN(Cc2cc(=O)oc3cc4c(cc23)CCC4)CC1	i	0.56	3	102	0	125	-1.9
O=C(CC1CCCCC1)c1c(O)c2ccccc2oc1=O	i	0.91	-4	97	-11	120	0.4
O=C1c2ccccc2C(=O)N1OCc1c(F)cccc1Cl	i	0.96	5	96	54	100	.
NNC(=O)C1CC1c1ccc(Cl)cc1 (stereo not given)	i	1	-7	26	-7	102	-2.5
COc1ccc([N+](=O)[O-])cc1NC(=O)CCN1CCN(c2ccccc2)CC1	i	0.97	6	101	20	120	.
Cc1ccc(-c2cc(=O)[nH][nH]2)c(C)c1	i	0.71	7	96	.	.	-1.6
Cc1csc(C(C#N)C(=O)c2ccc(S(=O)(=O)N3CCCC3)cc2)n1 (stereo not given)	i	0.81	-17	104	20	67	-1.1
O=C(CCC(=O)N1CCN(c2ccc(O)cc2)CC1)c1cccs1	i	0.53	.	98	.	.	.
O=C1c2ccccc2C(Nc2ccc3c(c2)OCCO3)N1c1ccc(Cl)cn1 (stereo not given)	i	0.87	2	102	.	.	-4.0
Cc1cc2c(c(=O)n1Cc1cccnc1)C(c1cccs1)C(C#N)=C(N)O2 (stereo not given)	i	1.1	-1	13	12	99	-3.0
COc1ccc(/C=C/C(=O)NCC(=O)N/N=C(/CCC(=O)O)c2ccccc2)cc1	i	1.2	.	96	.	.	.
CC1CCCCN1Cc1c(O)ccc2c(=O)c(-c3nc4ccccc4s3)c(N)oc12 (stereo not given)	i	0.54	-1	105	.	.	-0.6
Cc1nc(NC(=O)c2ccccc2)nc2cc3c(cc12)OCO3	i	0.91	0	94	34	132	-1.0
COc1ccc(C(=O)Nc2cccc(C(=O)NCc3ccco3)c2)cc1	i	1.1	-2	98	67*	105*	.
CN(C)/C=C/c1c([N+](=O)[O-])c2ccc(O)cc2n1-c1ccccc1	i	0.94	.	67	.	.	.
O=C(Nc1ccc(O)c(-c2nc3ccccc3o2)c1)C1(c2ccc(Cl)cc2)CCCC1	i	1	-10	108	.	.	0.3
O=C(Nc1cc([N+](=O)[O-])ccc1F)C1CC1	i	0.94	-9	109	-18	58	0.7
NCCNc1cc(N2CCCC2)ccc1[N+](=O)[O-]	i	0.86	-11	105	-33	152	.
CN(C)CCCN1C(=O)c2cccc3c(Br)ccc(c23)C1=O	i	0.98	-9	104	-69	131	.
Cc1cc(C)cc(CSCC(=O)N/N=C/c2ccc(OCC(=O)NCc3ccco3)cc2)c1	i	0.86	-5	98	4	124	-0.9
COc1ccc(/C=C/C(=O)N2CCC(C(N)=O)CC2)cc1S(=O)(=O)N1CCOCC1	i	0.94	1	101	.	.	.
CC(C)c1ccc(NC(=O)c2cc3c(=O)n(C)c4ccccc4c3n2C)cc1	i	0.91	.	98	.	.	.
O=C(NCc1cccs1)C1CC1	i	1.1	9	105	32	108	.
Cc1ccc(C)c(NC(=S)Nc2cccnc2)c1	i	0.92	-1	103	-40	93	.
CCOCc1[nH]c(=S)[nH]c(=O)c1Cc1ccc(OCC)cc1	i	1	-1	104	-70	148	.
Cc1ccc(NNC(=O)c2c(C)noc2C)cc1Cl	i	1.1	.	100	.	.	.
Cc1cccc(OC(=O)C2C(c3ccccc3)C(C(=O)O)C2c2ccccc2)c1 (stereo not given)	i	0.83	-7	92	25	132	-2.0
COc1ccc(NC(=O)CSc2nnc(-c3cccnc3)o2)cc1	i	0.92	-3	-41	.	.	-1.6
CCOC(=O)NC(c1ccc(C(C)C)cc1)C(Cl)(Cl)Cl (stereo not given)	i	1.1	-4	99	.	.	0.4
CCOc1cc(NC(=O)c2cccs2)c(OCC)cc1NC(=O)c1ccccn1	i	0.95	-3	104	.	.	.
Cc1cccc(-c2cc(N)n(-c3ccccc3)n2)c1	i	0.93	1	99	.	.	.
COc1ccc(N/C(=C(/C(Cl)=C(Cl)Cl)[N+](=O)[O-])n2nnc3ccccc32)cc1	i	1	5	98	-74	76	0.2
C#CCOCCOCCOCCNc1nc(N2CCN(C(=O)[C@H](CCCCN)n3cc(C(N)CO)nn3)CC2)nc(N2CCN(C(=O)[C@H](CCC(=O)O)n3cc(C(N)Cc4ccc(O)cc4)nn3)CC2)n1 (stereo not given in full)	i	0.81	.	96	.	.	.

A stretch from further up, as a working copy:
SMILES	HSV replic up	HSV replic up primary fold	PKD1 kinase inh	RGS16-Gao HTS	INS promoter inh	INS promoter inh cell count	GALR2 ag
CCOCc1[nH]c(=S)[nH]c(=O)c1Cc1ccc(OCC)cc1	i	1	-1	104	-70	148	.
Cc1ccc(NNC(=O)c2c(C)noc2C)cc1Cl	i	1.1	.	100	.	.	.
Cc1cccc(OC(=O)C2C(c3ccccc3)C(C(=O)O)C2c2ccccc2)c1 (stereo not given)	i	0.83	-7	92	25	132	-2.0

Sorted by the number under PKD1 kinase inh (low to high): three from the list above.
smiles,HSV replic up,HSV replic up primary fold,PKD1 kinase inh,RGS16-Gao HTS,GALR2 ag
NCCNc1cc(N2CCCC2)ccc1[N+](=O)[O-],i,0.86,-11,105,.
Cc1cccc(OC(=O)C2C(c3ccccc3)C(C(=O)O)C2c2ccccc2)c1 (stereo not given),i,0.83,-7,92,-2.0
Cc1ccc(C)c(NC(=S)Nc2cccnc2)c1,i,0.92,-1,103,.

Bioassay records: PubChem BioAssay, several laboratories
